# MARV entry inh: inhibitors of Marburg virus binding or cell entry; Potency, µM (doses to about 37.8 µM), for the others: at the top dose activity change, negative = inhibition, most hits filed as inhibitors; Marburg virus pseudotyped entry inhibition, cell reporter; control for the full effect not named in the record; about a third of the inactives were read at about 46 µM; actives 1.8% (n = 300,000); active = well fitted inhibition curve with a large enough effect; inconclusive = small, poorly fitted or top-dose-only effect, or effect the other way; inactive = flat fitted curve, though single readings scatter; tested in HEK293 cells; about a fifth of its hits are not listed in these tables; also: % is scaled to controls: 0 for no effect and ±100 for the full control effect; luciferase read-out
# SARS PLpro yeast: SARS-CoV PLP inhibition in yeast | S. cerevisiae expressing SARS-CoV PLpro, growth rescue; control for the full effect not named in the record | Potency, µM (highest dose often 32.9 µM), without a hit: at the highest dose activity, positive = growth rescue | actives 0.19% (n = 330,000); also: 0% is about no effect; nearly all actives have a fitted effect of over 55% in size; growth read by luminescence after 48 h
# Cruzain noTriton: cruzain (T. cruzi) inhibition without detergent; actives 2.3% (n = 200,000); Potency, µM, without a hit: max response, negative = inhibition, usual class: inhibitors; purified cruzain, Z-FR-AMC fluorescence, no detergent; AID 1476; active = well fitted curve in the direction sought with a large enough effect; inconclusive = small, poorly fitted or top-dose-only effect, or another doubt; inactive = no such curve, though single readings can be large; an effect the other way counts as inactive or inconclusive;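 also: plate controls were enzyme without inhibitor for no effect and buffer without enzyme for full effect; nearly all actives have a fitted effect of over 40% in size; top concentration of the series not given in the record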
# Target sequence (P25779 123-467 limits assumed): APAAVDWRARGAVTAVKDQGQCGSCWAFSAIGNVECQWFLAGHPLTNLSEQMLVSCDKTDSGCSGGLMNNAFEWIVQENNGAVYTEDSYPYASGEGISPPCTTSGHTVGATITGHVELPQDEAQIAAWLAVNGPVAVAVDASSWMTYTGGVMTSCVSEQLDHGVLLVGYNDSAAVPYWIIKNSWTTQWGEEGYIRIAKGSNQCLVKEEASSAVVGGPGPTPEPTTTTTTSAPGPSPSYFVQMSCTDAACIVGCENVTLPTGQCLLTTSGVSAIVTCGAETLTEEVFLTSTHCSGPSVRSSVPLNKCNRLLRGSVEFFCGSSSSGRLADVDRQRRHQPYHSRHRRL
#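 Purified cruzain at 1.5 nM, pre-incubated 15 min with compound at room temperature in 100 mM sodium acetate pH 5.5, 5 mM DTT, 0.00005% Triton X-100. Reaction started with 2 uM Z-FR-AMC; AMC fluorescence increase over 60 s gives rate.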
# StopGo reporter: lowers the luciferase signal of an FMDV 2A StopGo reporter | human cells with a luciferase reporter of 2A StopGo recoding; control for the full effect not named in the record | AID 1159524 | Potency, µM (series often up to 57.9 µM), for the others: top-dose signal change, negative = less light | actives 1.2% (n = 410,000); active = well fitted falling curve with a large enough effect; inconclusive = small, poorly fitted or top-dose-only effect; inactive = no such curve, though single readings can be large or run the other way; tested in HEK293T cells; also: % is scaled to controls: 0 for no effect and ±100 for the full control effect; nearly all actives have a fitted effect of over 45% in size; luciferase light after 4 h
# Cruzain Triton: blocks cruzain activity in presence of Triton detergent; P25779; purified cruzain, Z-FR-AMC fluorescence, 0.01% Triton; Potency, µM, for inactives: max response, negative = inhibition, hits mostly inhibitors; actives 0.43% (n = 200,000); AID 1478; active = well fitted curve in the direction sought with a large enough effect; inconclusive = small, poorly fitted or top-dose-only effect, or another doubt; inactive = no such curve, though single readings can be large; an effect the other way counts as inactive or inconclusive;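 also: plate controls were neutral wells for no effect and buffer without enzyme for full effect; nearly all actives have a fitted effect of over 40% in size; top concentration of the series not given in the record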
#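 Enzyme 1.5 nM, Z-FR-AMC 2 uM, NaOAc 100 mM pH 5.5, DTT 5 mM, Triton X-100 0.01%; 15 min RT compound preincubation; kinetic ex360/em450, 60 s delta.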
# Lassa entry inh: Lassa virus entry inhibition. AID 540256. Lassa virus pseudotype entry inhibition, cell reporter; control for the full effect not named in the record. Potency, µM (titrated, usually from 37.9 µM), without a hit: at the top dose activity change, negative = inhibition, usual class: inhibitors. actives 1.2% (n = 300,000); active means well fitted inhibition curve with a large enough effect; inconclusive means small, poorly fitted or top-dose-only effect, or effect the other way; inactive means flat fitted curve, though single readings scatter; tested in HEK293 cells; also: % is scaled to controls: 0 for no effect and ±100 for the full control effect; nearly all actives have a fitted effect of over 50% in size; luciferase read-out
# RE007 growth inh: less growth of the S. pombe RE007 Vpr strain. actives 0.21% (n = 360,000). Potency, µM (highest dose often 92.2 µM), for inactives: top-dose activity change, negative = less growth. AID 651644. S. pombe RE007 Vpr strain, BacTiter-Glo ATP luminescence, 24 h; control for the full effect not named in the record; active = well fitted falling curve with a large enough effect; inconclusive = small, poorly fitted or top-dose-only effect; inactive = no such curve, though single readings can be large or run the other way;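 also: % is scaled to controls: 0 for no effect and ±100 for the full control effect; nearly all actives have a fitted effect of over 50% in size; the assay follows cell death caused by Vpr and the record does not say whether a fall means rescue or toxicity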
#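 Fission yeast strain RE007, carrying one chromosomally integrated HIV-1 vpr copy, was seeded at OD 0.01 in PMG+AL medium with 23 nL pinned compound. After 24 h at 30 °C and 99% humidity, viability was read by BacTiter-Glo luminescence.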
# NS1 inh: inhibitors of influenza NS1 protein function | S. cerevisiae slowed by influenza A NS1, growth recovery by OD600 | actives 0.4% (n = 270,000) | Potency, µM (series often up to 46.1 µM), without a hit: at the top dose activity, positive = more growth; also: actives are rising curves; nearly all actives have a fitted effect of over 50% in size
#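 Read-out: OD600 growth recovery of NS1-expressing budding yeast. Cells grown overnight at 30C in -URA glucose medium, washed, resuspended and diluted 1:100 in 2% galactose assay medium, pH 6.0. Same strain lacking NS1 served as positive control.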
# * hit, by the source's call; ? = inconclusive; . = not tested or not shown; [ ] = another dose, or the depositor's remark. Unless noted, calls follow the shape of the dose curve; as a rule, active means well fitted rising curve with a large enough effect; inconclusive means small, poorly fitted or top-dose-only effect; inactive means no such curve, though single readings can be large or run the other way. Potency is read from the fitted curve at half-maximal effect.
no.	molecule	SARS PLpro yeast	Cruzain noTriton	MARV entry inh	RE007 growth inh	StopGo reporter	Cruzain Triton	Lassa entry inh	NS1 inh
1	O=C(O)c1ccc(/C=N/NC(=O)c2ccc3c(c2)OCCO3)cc1	7%	.	.	-21%	9%	.	.	?
2	CC(=O)c1ccc(N2CCN(C(=O)c3cc4c(-c5ccccc5F)nn(C)c4s3)CC2)cc1	-4%	-8%	.	6%	?	-2.5%	.	?
3	CCCS(=O)(=O)N1CCN(CCCc2ccccc2)CC1	0%	-7%	2%	8%	-11%	0.9%	-4%	-8%
4	COC(=O)[C@@]1(Cc2ccc(OC)cc2)[C@H]2c3cc(C(=O)N4CCCC4)n(CCN4CCOCC4)c3C[C@H]2CN1C(=O)c1ccccc1	.	?	.	-4%	-24%	-2.0%	.	.
5	CN(C(=O)COc1ccccc1C(=O)NCCOc1ccccc1)c1ccccc1	19%	6%	?	-9%	8.9µM*	-2.3%	11µM*	-22%
6	O=S(=O)(N1CCCCC1)N1CCN(c2ccc(F)cc2)CC1	-8%	-5%	2%	-10%	.	-3.4%	-29%	12%
7	CCCOc1cccc(NC(=O)c2cc(C)oc2C)c1	1%	0%	?	?	-7%	-0.7%	-3%	-43%
8	CNS(=O)(=O)c1cn(CC(=O)N2CCN(c3ccc(C)cc3C)CC2)cc1S(=O)(=O)NC	.	16%	.	.	-4%	-8.4%	5%[46.1 µM]	.
9	CCC1(c2ccccc2)NC(=O)N(CC(=O)NCCN2C(=O)S/C(=C\c3cccnc3)C2=O)C1=O (configuration not stated)	-7%	.	25%	17%	?	.	-3%[46.1 µM]	.
10	NS(=O)(=O)c1ccc(CCNC(=O)c2cc(-c3ccccc3)nc3ccccc23)cc1	14%	-12%	?	-2%	0%	-8.6%	?	13%
11	CC(=O)Oc1ccc(N2C(=O)C3C(C2=O)C2C=CC3C23CC3)cc1[N+](=O)[O-] (configuration not stated)	2%	.	.	12%	2%	.	.	-8%
12	COc1ccc(-n2ncc3c2CC(C)(C)CC3NC(=O)CCn2nc(C)cc2C)cc1 (configuration not stated)	5%	.	.	4%	-18%	.	.	5%
13	CCc1cccc(C)c1N1C(=O)CC(C)(C)CC1=O	-4%	.	-8%	10%	-9%	.	.	-8%
14	C=CCc1ccc(OCCN2CCc3ccccc3C2)c(OC)c1	-1%	.	?	-6%	9%	.	4%	-1%
15	Cc1cc2ccccc2cc1CN1CCOCC1	2%	-2%	-4%	-2%	.	-1.4%	-2%	-1%
16	COc1ccc(/C=C/C(=O)Nc2nonc2NC(C)=O)cc1	-5%	2%	?	3%	63%[activator]	-9.4%	2%	-3%
17	O=C1CCCN1CC(O)CS(=O)(=O)c1ccccc1 (configuration not stated)	2%	5%	17%	11%	13%	5.4%	3%	6%
18	N=C1/C(=C\c2ccc(-c3cc(Cl)cc(Cl)c3)o2)C(=O)N=C2SC=C(c3ccccc3)N12	-27%	2.5µM*	?	-3%	-9%	-3.7%	2%	5%
19	O=C(NC1CCCCNC1=O)c1ccccc1 (configuration not stated)	-3%	.	-5%[46.1 µM]	1%	1%	.	6%	1%
20	COc1cc2c3c(c1)C(C)=CC(C)(C)N3C(=O)C2=O	-2%	.	?	-8%	30%	.	3%	-36%
21	COc1cc(/C=N/NC(=O)c2sc3nc(C)cc(C)c3c2N)ccc1O	2%	.	-14%[46.1 µM]	-2%	-18%	.	-30%	?
22	CCCCC1=CC2=CC(=O)C(C)(OC(=O)CC)C(=O)C2=CN1Cc1ccc(OC)cc1 (configuration not stated)	-2%	.	.	4%	-15%	.	.	7%
23	Cc1cccc(NC(=O)C(=O)NCCc2csc(-c3ccc(F)cc3)n2)c1C	.	-7%	.	.	-18%	-2.6%	12%[46.1 µM]	.
24	COc1ccc(N2CC(NC(=O)c3cc4ccccc4o3)CC2=O)cc1 (configuration not stated)	.	-12%	.	.	-21%	-0.9%	-1%[46.1 µM]	.
25	CC(C)NC(=S)N=Nc1c(O)[nH]c2ccc([N+](=O)[O-])cc12	2%	.	-23%[46.1 µM]	-6%	?	.	?	.
26	CN(Cc1ccccc1)c1nc(-c2ccc([N+](=O)[O-])cc2)nc2ccccc12	?	-26%	?	0%	-28%	-0.4%	13%	0%
27	O=C1CSC(c2ccccn2)N1c1ccc2ccccc2c1 (configuration not stated)	4%	-9%	-26%	-5%[3.69 µM]	2%	3.9%	2%	19%
28	O=C(CN1CCOCC1)Nc1ccc(N2CCN(c3ccccc3)CC2)c(F)c1	1%	.	3%[46.1 µM]	-10%	-11%	.	0%	.
29	CCC(C)NC(=O)c1ccc2c(SCC(=O)O)c3c(nc2c1)CCCC3 (configuration not stated)	-21%	7%	23%	8%	-13%	?	0%	-3%
30	Cc1cc(C)c(OCCCn2ccnc2)c(C)c1	3%	.	.	-4%	-21%	.	.	9%

# Shown screen by screen: part of the list above.
15. Cc1cc2ccccc2cc1CN1CCOCC1
16. COc1ccc(/C=C/C(=O)Nc2nonc2NC(C)=O)cc1
17. O=C1CCCN1CC(O)CS(=O)(=O)c1ccccc1 (configuration not stated)
18. N=C1/C(=C\c2ccc(-c3cc(Cl)cc(Cl)c3)o2)C(=O)N=C2SC=C(c3ccccc3)N12
19. O=C(NC1CCCCNC1=O)c1ccccc1 (configuration not stated)
20. COc1cc2c3c(c1)C(C)=CC(C)(C)N3C(=O)C2=O
21. COc1cc(/C=N/NC(=O)c2sc3nc(C)cc(C)c3c2N)ccc1O
22. CCCCC1=CC2=CC(=O)C(C)(OC(=O)CC)C(=O)C2=CN1Cc1ccc(OC)cc1 (configuration not stated)
23. Cc1cccc(NC(=O)C(=O)NCCc2csc(-c3ccc(F)cc3)n2)c1C
24. COc1ccc(N2CC(NC(=O)c3cc4ccccc4o3)CC2=O)cc1 (configuration not stated)

screen / no.,15,16,17,18,19,20,21,22,23,24
SARS PLpro yeast,2%,-5%,2%,-27%,-3%,-2%,2%,-2%,.,.
Cruzain noTriton,-2%,2%,5%,2.5µM*,.,.,.,.,-7%,-12%
MARV entry inh,-4%,?,17%,?,-5%[46.1 µM],?,-14%[46.1 µM],.,.,.
RE007 growth inh,-2%,3%,11%,-3%,1%,-8%,-2%,4%,.,.
StopGo reporter,.,63%[activator],13%,-9%,1%,30%,-18%,-15%,-18%,-21%
Cruzain Triton,-1.4%,-9.4%,5.4%,-3.7%,.,.,.,.,-2.6%,-0.9%
Lassa entry inh,-2%,2%,3%,2%,6%,3%,-30%,.,12%[46.1 µM],-1%[46.1 µM]
NS1 inh,-1%,-3%,6%,5%,1%,-36%,?,7%,.,.

25. CC(C)NC(=S)N=Nc1c(O)[nH]c2ccc([N+](=O)[O-])cc12
26. CN(Cc1ccccc1)c1nc(-c2ccc([N+](=O)[O-])cc2)nc2ccccc12
27. O=C1CSC(c2ccccn2)N1c1ccc2ccccc2c1 (configuration not stated)
28. O=C(CN1CCOCC1)Nc1ccc(N2CCN(c3ccccc3)CC2)c(F)c1
29. CCC(C)NC(=O)c1ccc2c(SCC(=O)O)c3c(nc2c1)CCCC3 (configuration not stated)
30. Cc1cc(C)c(OCCCn2ccnc2)c(C)c1

screen / no.,25,26,27,28,29,30
SARS PLpro yeast,2%,?,4%,1%,-21%,3%
Cruzain noTriton,.,-26%,-9%,.,7%,.
MARV entry inh,-23%[46.1 µM],?,-26%,3%[46.1 µM],23%,.
RE007 growth inh,-6%,0%,-5%[3.69 µM],-10%,8%,-4%
StopGo reporter,?,-28%,2%,-11%,-13%,-21%
Cruzain Triton,.,-0.4%,3.9%,.,?,.
Lassa entry inh,?,13%,2%,0%,0%,.
NS1 inh,.,0%,19%,.,-3%,9%

# Assay outcomes (PubChem BioAssay)
